Yfh1-depleted yeast – enhancers of respiration in Yfh1-depleted yeast, dose response, Friedreich's ataxia, plus single-dose screen (AID 1465). S. cerevisiae Yfh1-off respiration, WST-1 reduction, 72 h; higher fold induction means a stronger effect. fold induction at 50 µM, or EC50 in µM where a hit was titrated. actives 0.074% (n = 220,000);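 active = fold induction of absorbance versus untreated yeast above a set limit, then at least 30% activation at any dose in follow-up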;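 also: activators that raise dye reduction in frataxin-depleted yeast; strong numbers were not always called active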
GPR55 activation – GPR55 agonists via beta-arrestin recruitment, primary screen, imaging, U2OS cells, beta-arrestin-GFP redistribution (AID 1961) | actives 0.048% (n = 290,000) | U2OS GPR55 beta-arrestin-GFP redistribution imaging; higher % means a stronger effect | G-protein coupled receptor 55 (Homo sapiens) | activation, % at 10 µM, or EC50 in µM where a hit was titrated;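 active = activation above 40% with more than 50 cells counted in the well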;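 also: U2OS osteosarcoma cells stably expressing GPR55 and beta-arrestin-GFP; plate controls were DMSO negative control for no effect and LPI positive control for full effect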
NOD2 inhibition – NOD2 signaling inhibitors, cell-based, luminescence, uHTS, HEK293 (AID 1566) | inhibition, % at 4 µM, or EC50 in µM where a hit was titrated | HEK293 NOD2/NF-kB luciferase reporter, luminescence; higher % means a stronger effect | actives 0.63% (n = 290,000); in the data active = inhibition above about 50%; also: many of its hits are not listed in these tables
ER stress rescue – rescue of cells from ER stress-induced death, primary screen, 384-well, CSM14.1, thapsigargin, ATP luminescence (AID 1222); CSM14.1 thapsigargin-induced death rescue, ATP luminescence; higher % means a stronger effect; cellular ATP content (survival), % at 20 µM, or EC50 in µM where a hit was titrated; 190,000 tested, under 10 active;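 active = EC50 below 50 µM in the dose-response confirmation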;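 also: death triggered by thapsigargin at about 15 µM added after 2 h compound pretreatment; cell ATP read after overnight thapsigargin exposure of roughly 18 to 22 hours; normalized against plate controls of thapsigargin alone and 5% DMSO vehicle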
NOD1 inhibition – NOD1 signaling inhibitors, primary screen, cell-based, luminescence, uHTS (AID 1578) | actives 1% (n = 290,000) | NOD1-driven NF-kB luciferase reporter cells, luminescence; higher % means a stronger effect | inhibition, % at 4 µM; hits with a dose series show EC50 in µM; in the data active = inhibition mostly above about 36%, no sharp cut-off; inactive = mostly below about 34%;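 also: HEK-293T reporter cells stimulated with the NOD1 agonist gamma-tri-DAP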
Numbers without * were called inactive; i = inactive; x = not tested or not shown; & = joins results of further samples. An excerpt (hit frequency here may not be typical).

Each structure is followed by: NOD2 inhibition, GPR55 activation, Yfh1-depleted yeast, ER stress rescue, NOD1 inhibition
[1] COc1ccc2[nH]cc(CCNC(C)=O)c2c1
  x, x, i, x, x
[2] CCNC(=S)NNC(=O)c1cc(C2CC2)nc2ccccc12
  24%, -0.1%, x, 5.3%, 10%
[3] C[C@]12C=CC(=O)C=C1CC[C@@H]1[C@@H]2C(=O)C[C@@]2(C)[C@H]1CC[C@]2(O)C(=O)CO
  -4%, -0.1%, x, x, -29%
[4] O=C(CCCCCN1C(=O)CCC1=O)Nc1ncn[nH]1
  3%, -0.1%, i, x, -22%
[5] CC(C)[C@H](NC(=O)[C@H](CC(=O)O)NC(=O)[C@H](CCCCN)NC(=O)[C@@H](N)CCCN=C(N)N)C(=O)N[C@@H](Cc1ccc(O)cc1)C(=O)O
  -2%, -0.2%, x, -2.3%, -25%
[6] Cc1cc(=O)[nH]c(-n2[nH]c(C)cc2=O)n1
  -17%, 0.3%, i, -0.4%, -15%
[7] CN(C)CC/C=C1/c2ccccc2COc2ccccc21
  26%, -0.5%, i, -1.7%, 4%
[8] CCOCCCNC(=O)CCC(=O)NNc1nc2ccccc2c2nc(C)nn12
  -2%, -0.4%, i, 0.7%, -13%
[9] CC(=O)O[C@H]1C(=O)[C@]2(C)[C@H]([C@H](OC(=O)c3ccccc3)[C@]3(O)C[C@H](OC(=O)[C@H](O)[C@@H](NC(=O)c4ccccc4)c4ccccc4)C(C)=C1C3(C)C)[C@]1(OC(C)=O)CO[C@@H]1C[C@@H]2O
  x, x, i, x, x
[10] CN1CCN(CCCN2c3ccccc3Sc3ccc(C(F)(F)F)cc32)CC1
  -4%&0%, -0.2%&-0.5%, i, -4.8%&-4.3%, -19%&-7%
[11] Nc1ncnc2c1ncn2C1OC(CO)C(O)C1O (stereo not drawn)
  -16%, -0.2%, i, 0.2%, -21%
[12] COC(=O)c1c(C)[nH]c(C)c1C(=O)c1ccccc1Cc1ccccc1
  x, x, i, x, x
[13] CN(C)CCC(c1ccc(Br)cc1)c1ccccn1 (stereo not drawn)
  16%, -0.2%, i, 6.8%, -17%
[14] O=C(COc1ccc2ccccc2c1Br)Nc1ncn[nH]1
  -12%, -0.1%, i, -0.4%, -32%
[15] CCCC(=O)Nc1ncnc2c1ncn2[C@@H]1O[C@@H]2COP(=O)(O)O[C@H]2[C@H]1OC(=O)CCC
  -1%, -0.1%, i, 1.4%, -48%
[16] COc1cc([C@@H]2c3cc4c(cc3[C@H](O)[C@H]3COC(=O)[C@H]23)OCO4)cc(OC)c1OC
  -15%, -0.1%, i, -1.6%, -16%
[17] O=C(NNC(=O)c1ccccc1OCc1ccccc1Cl)c1csc(N2CCOCC2)n1
  -35%, 0.4%, x, x, 96%*
[18] CCc1ccc(OCC(=O)Nc2ncn[nH]2)cc1
  -36%, -0.8%, i, -1.0%, -5%
[19] Cc1cc(C)c(/C=C2\C(=O)Nc3ccccc32)[nH]1
  -37%, -0.1%, x, x, -22%
[20] O=C(Nc1ncn[nH]1)c1ccc(Cl)cc1Cl
  7%, 0.7%, i, -0.6%, -26%
[21] CC(C)c1nc(CN(C)C(=O)N[C@H](C(=O)N[C@@H](Cc2ccccc2)C[C@H](O)[C@H](Cc2ccccc2)NC(=O)OCc2cncs2)C(C)C)cs1
  14%, -0.5%, i, -1.6%, 0%
[22] CN(C)CC[C@@H](c1ccc(Br)cc1)c1ccccn1
  x, x, i, x, x
[23] Cc1ccc(/C(=C\CN2CCCC2)c2ccccn2)cc1
  -2%, -0.1%, i, x, -7%

In the list so far, these have a carbonyl joined to an NH by a bond outside any ring:
Each structure is followed by: NOD2 inhibition, GPR55 activation, Yfh1-depleted yeast, ER stress rescue, NOD1 inhibition
[1] COc1ccc2[nH]cc(CCNC(C)=O)c2c1
  x, x, i, x, x
[2] CCNC(=S)NNC(=O)c1cc(C2CC2)nc2ccccc12
  24%, -0.1%, x, 5.3%, 10%
[4] O=C(CCCCCN1C(=O)CCC1=O)Nc1ncn[nH]1
  3%, -0.1%, i, x, -22%
[5] CC(C)[C@H](NC(=O)[C@H](CC(=O)O)NC(=O)[C@H](CCCCN)NC(=O)[C@@H](N)CCCN=C(N)N)C(=O)N[C@@H](Cc1ccc(O)cc1)C(=O)O
  -2%, -0.2%, x, -2.3%, -25%
[8] CCOCCCNC(=O)CCC(=O)NNc1nc2ccccc2c2nc(C)nn12
  -2%, -0.4%, i, 0.7%, -13%
[9] CC(=O)O[C@H]1C(=O)[C@]2(C)[C@H]([C@H](OC(=O)c3ccccc3)[C@]3(O)C[C@H](OC(=O)[C@H](O)[C@@H](NC(=O)c4ccccc4)c4ccccc4)C(C)=C1C3(C)C)[C@]1(OC(C)=O)CO[C@@H]1C[C@@H]2O
  x, x, i, x, x
[14] O=C(COc1ccc2ccccc2c1Br)Nc1ncn[nH]1
  -12%, -0.1%, i, -0.4%, -32%
[15] CCCC(=O)Nc1ncnc2c1ncn2[C@@H]1O[C@@H]2COP(=O)(O)O[C@H]2[C@H]1OC(=O)CCC
  -1%, -0.1%, i, 1.4%, -48%
[17] O=C(NNC(=O)c1ccccc1OCc1ccccc1Cl)c1csc(N2CCOCC2)n1
  -35%, 0.4%, x, x, 96%*
[18] CCc1ccc(OCC(=O)Nc2ncn[nH]2)cc1
  -36%, -0.8%, i, -1.0%, -5%
[20] O=C(Nc1ncn[nH]1)c1ccc(Cl)cc1Cl
  7%, 0.7%, i, -0.6%, -26%
[21] CC(C)c1nc(CN(C)C(=O)N[C@H](C(=O)N[C@@H](Cc2ccccc2)C[C@H](O)[C@H](Cc2ccccc2)NC(=O)OCc2cncs2)C(C)C)cs1
  14%, -0.5%, i, -1.6%, 0%

Screening data as filed in PubChem.
